Screening data: PubChem BioAssay, National Center for Advancing Translational Sciences (NCATS)
Rango-impB inh: inhibitors of Rango-importin beta complex formation. Q14974. Rango CFP/YFP FRET sensor + importin beta, 45 min. Potency, µM (top dose mostly 92.2 µM), for the others: at the highest dose inhibition of complex formation. 340,000 compounds, 0.031% hits. AID 540263; active = rising FRET ratio curve, often small or poorly fitted; inconclusive = mostly compound fluorescence or quenching in the first reads; inactive = flat curves in all reads;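 also: potency is read from the fitted curve at half-maximal effect; 0% = DMSO wells and 100% = buffer wells lacking importin beta; nearly all actives have a fitted effect of over 15% in size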
Target sequence (Q14974 whole entry, looked up): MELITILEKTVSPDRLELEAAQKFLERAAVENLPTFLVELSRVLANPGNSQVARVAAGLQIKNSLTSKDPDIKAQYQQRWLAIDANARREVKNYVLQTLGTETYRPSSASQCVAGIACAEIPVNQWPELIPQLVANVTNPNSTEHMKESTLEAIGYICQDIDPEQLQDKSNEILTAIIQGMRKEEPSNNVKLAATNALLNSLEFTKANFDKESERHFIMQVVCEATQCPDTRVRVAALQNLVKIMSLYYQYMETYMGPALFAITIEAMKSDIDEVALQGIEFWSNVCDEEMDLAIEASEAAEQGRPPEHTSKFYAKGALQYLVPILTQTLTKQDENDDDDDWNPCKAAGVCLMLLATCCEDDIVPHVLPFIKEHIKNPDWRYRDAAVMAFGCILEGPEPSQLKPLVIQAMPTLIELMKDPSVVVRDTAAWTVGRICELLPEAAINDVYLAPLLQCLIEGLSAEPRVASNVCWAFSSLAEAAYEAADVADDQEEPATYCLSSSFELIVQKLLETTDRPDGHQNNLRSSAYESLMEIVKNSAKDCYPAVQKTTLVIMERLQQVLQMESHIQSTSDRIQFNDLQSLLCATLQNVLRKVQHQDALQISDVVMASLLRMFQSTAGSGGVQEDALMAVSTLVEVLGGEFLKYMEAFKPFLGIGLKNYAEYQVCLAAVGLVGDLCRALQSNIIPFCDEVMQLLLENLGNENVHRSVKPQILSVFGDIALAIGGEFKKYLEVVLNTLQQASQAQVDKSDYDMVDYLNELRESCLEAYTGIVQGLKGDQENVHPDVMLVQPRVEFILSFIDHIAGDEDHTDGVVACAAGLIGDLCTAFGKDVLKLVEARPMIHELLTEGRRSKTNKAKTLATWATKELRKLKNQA
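FRET biosensor (snurportin 1 IBB flanked by EYFP and cerulean), 50 nM, with compound 5 min, then 0.125 microM importin beta in PBS, 1 mM DTT, 0.02% Tween-20, 0.1% BSA. CFP/YFP ratio read after 45 min at room temperature; pre-read flags interference.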
miR-21 reporter: raises the signal of a miR-21 reporter; Potency, µM (highest dose often 38.3 µM), without a hit: at the top dose reporter change, positive = more light; HeLa miR-21 FLuc reporter, luciferase, 48 h; 340,000 tested, under 10 active; active = well fitted rising curve with a large enough effect; inconclusive = small, poorly fitted or top-dose-only effect; inactive = no such curve, though single readings can be large or run the other way;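 also: % of control where 0% means no effect; miR-21 action dims this reporter so a rising signal means less miR-21 action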
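Luminescence from a firefly luciferase reporter carrying a miR-21 binding site downstream, stably expressed under a CMV promoter in HeLa cells that make miR-21 endogenously, reports miRNA modulation after 48 h compound exposure up to approximately 40uM final.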
GLA inh pH 4.5: inhibitors of human alpha-galactosidase A at pH 4.5. P06280. purified enzyme, 4-MU-alpha-Gal fluorescence, pH 4.5. activity change, negative = inhibition, % at 105 µM. 230,000 tested, under 10 active. AID 1467; inconclusive = small, poorly fitted or top-dose-only inhibition, or a rising curve; inactive = flat fitted curve, though single readings scatter; no compound was filed as active;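 also: 0% = full activity with enzyme and -100% = basal without enzyme; dose as in the result columns while the protocol names 77 µM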
Rango release inh: inhibitors of RanGTP-induced Rango-importin beta complex dissociation. AID 540253. 340,000 compounds, 0.071% hits. Potency, µM (highest dose often 46.1 µM), for inactives: at the highest dose activity change, negative = inhibition. O95149+P62826. Biochemical FRET Rango-importin beta, RanGTP-induced dissociation; active means falling FRET ratio curve, often poorly fitted, with flat reads before Ran was added; inconclusive means other falling curves, or compound fluorescence or quenching; inactive means flat or rising ratio curve;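 also: potency is read from the fitted curve at half-maximal effect; % of control where 0% means no effect; nearly all actives have a fitted effect of over 45% in size; -100% = wells without RanGTP and RCC1; the record marks most hits as doubtful in a second field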
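Rango FRET biosensor (snurportin-1 IBB flanked by N-terminal EYFP and C-terminal CFP10) at 0.1 uM, with 0.25 uM importin beta in PBS, 1mM DTT, 0.02% Tween-20, 0.1% BSA. 0.6 uM Ran, 2mM GTP and 0.2 uM RCC1 were then added for 45 min at room temperature. Inhibition read as loss of FRET rise.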
An asterisk follows results filed as active; ? = inconclusive; . = not tested or not shown; & = joins results of further samples. These rows are one share of the data; count on the stated rates, not on these rows.

SMILES | Rango-impB inh | miR-21 reporter | GLA inh pH 4.5 | Rango release inh
CCOC(=O)c1nn(-c2ccc(F)cc2)cc1O | -0.1% | -55% | 0 | 0%
Cc1nnc(Nc2ccc3c(c2)OCO3)c2ccccc12 | -1.6% | -55% | -3 | 0%
O=C(NCc1ccccc1F)c1cccc(S(=O)(=O)N2CCCCC2)c1 | 0.0% | . | . | 26%
O=C(NNC(=O)C1CCCN(S(=O)(=O)c2cccc(F)c2)C1)C1CC1 (centres undefined) | 4.6% | 0% | 1 | 0%
COc1cccc(C(=O)N/N=c2\sc3ccccc3n2C)c1 | 5.3% | -33% | 2 | 17%
COc1cccc(C2C(C(C)=O)=C(O)C(=O)N2CCNCCO)c1 (centres undefined) | . | -6% | 7 | .
COc1ccc(C(=O)CN2Cc3ccccc3C2=N)cc1 | 0.1% | -26% | 0 | 6%
COc1ccc(N(C)S(=O)(=O)c2cccc(C(=O)N3CCN(c4ccccc4)CC3)c2)cc1 | -1.7% | . | . | -1%
COC(=O)c1ccccc1NC(=O)CN1C(=O)CSC1=O | 5.6% | -7% | 7 | 13%
NC(=O)c1cc(S(=O)(=O)N2CCOCC2)cs1 | -3.7% | -1% | . | -8%
CCOC(=O)CNc1nc(Cl)nc(Nc2ccc(Cl)cc2)n1 | 1.2% | 4% | 8 | -11%
CC(C)n1cc(C(=O)N2CCCC(N3CCN(c4cccc(Cl)c4)CC3)C2)cn1 (centres undefined) | -0.3% | -1% | . | -7%
CC(C)CC(=O)N1CCN(C(=O)c2ccc(F)cc2)CC1 | 1.5% | 2% | . | -3%
Cc1cc2oc(=O)cc(CN3CCCCC3)c2cc1C | -2.9% | -7% | . | -7%
COCCNC(=O)C(c1ccc(C)o1)N(Cc1ccccc1)C(=O)Cn1nnc2ccccc21 (centres undefined) | 0.3% | -10% | 1 | 9%
COc1ccc(CNc2nc(SCC(=O)NCc3ccco3)nc3ccccc23)cc1 | 2.0% | -9% | -17 | -4%
Cc1cc(=O)c2cc(Cl)ccc2[nH]1 | 0.5% | 14% | 8&-15 | 0%
Cc1ccc(C(=O)Nc2ccccc2C(=O)O)cc1S(=O)(=O)NC1CCCCC1 | 0.0% | -4% | . | ?
O=C(c1cccs1)N(CCN1CCCCC1)CC1CCCN(C2CCCC2)C1 (centres undefined) | -0.7% | -47% | . | -18%
COCc1cc(=O)n2[nH]c(SCc3ccccc3)nc2n1 | -1.0% | 3% | -12 | 12%
Cc1ccc(SCCC(=O)OCC(=O)Nc2ccc(C(N)=O)cc2)cc1 | 1.7% | . | . | -5%
CCCC(=O)OCC(=O)Nc1ccccc1C#N | -1.6% | -1% | 2 | -6%
COc1ccccc1N1CCN(C(=O)[C@H](C)NS(=O)(=O)c2ccc3c(c2)OCCCO3)CC1 | 2.1% | . | . | -16%
Cc1cc(C(=O)OCC(=O)Nc2sc3c(c2C#N)CCC(C)C3)c2ccccc2n1 (centres undefined) | ? | -10% | -8 | -7%
COc1cccc(N2CCN(S(=O)(=O)c3ccc(-n4cnnn4)cc3)CC2)c1 | -2.0% | 0%&-3% | . | 13%
COc1ccc(C)c2sc(N(CCCN(C)C)C(=O)c3ccc(S(=O)(=O)N4CCc5ccccc5C4)cc3)nc12 | -2.4% | . | . | -3%
Cc1cc(C)n(Cc2ccc(Cl)cc2Cl)c(=O)c1S(=O)(=O)c1ccccc1 | 1.5% | -13% | -1 | 0%
Cc1cccc(COc2ncnc3nc[nH]c23)c1 | -2.2% | -40% | 6 | -2%
CCN(CC)c1ccc(SS(=O)(=O)O)cc1 | 5.8%&-0.2% | 17%&16% | 1&5 | -7%&-11%
Cc1cc(=O)cc(C)n1-c1ccc(F)cc1F | -2.7% | 0% | 1 | -4%
COc1cc(/C=C2\CC/C(=C\c3cc(OC)c(OC)c(OC)c3)C2=O)cc(OC)c1OC | ? | -5% | -5 | ?
Cc1ccc(/C=N/n2c(-c3ccco3)n[nH]c2=S)s1 | ? | -1% | -1 | 6%
Cc1ccc(CSCC2Nc3ccc(C(=O)N4CCN(c5ccc(F)cc5)CC4)cc3NC2=O)cc1 (centres undefined) | ? | -1% | . | -22%
Cc1ccc(NC(=O)c2cc(Cl)nc3ccccc23)cc1 | -2.6% | 7% | 4 | 16%
COc1ccc(Br)cc1S(=O)(=O)N(CC(=O)N1CCN(C)CC1)c1ccccc1 | -2.5% | -2% | . | -9%
COc1ccc(N2CCN(C3CCCN(S(=O)(=O)c4ccc(C)cc4C)C3)CC2)cc1 (centres undefined) | 4.1% | 0% | . | -7%
O=C(CSCc1cnn(-c2ccccc2)c1-n1cccc1)NCCN1CCOCC1 | 1.7% | -5% | -6 | 25%
Cc1cc(OCC(=O)O/N=C(\N)c2ccccc2)cc(C)c1Cl | -1.6% | -5% | -3 | 1%
CCC(C)(C)NC(=O)C(c1cccnc1)N(C(=O)c1csnn1)c1ccccc1 (centres undefined) | 0.2% | 2% | -3 | -2%
O=C(NC(=S)Nc1ccc(N2CCOCC2)c(Cl)c1)c1cncc(Br)c1 | -2.0% | -7% | -6 | 3%
N#Cc1cn(CCOc2ccccc2F)c2ccccc12 | -1.5% | -23% | -3 | 17%
COc1cc(C)nc(N(Cc2ccccc2)S(=O)(=O)c2ccc(C)cc2)n1 | -10.0% | 2% | -3 | ?
CC(C)C(=O)Nc1ccc2c(c1)nc(CCN1CCCCC1)n2C | -1.4% | 0% | . | 8%
c1ccc(Cn2nnc3c(N4CCc5ccccc54)ncnc32)cc1 | -0.6% | 0% | 1 | 1%
CCOC(=O)N1CCN(CC(=O)Nc2sc(CC)cc2C(=O)c2ccc(OC)cc2)CC1 | 3.4% | 6% | 14 | -14%
O=C(NCCCn1ccnc1)c1cc2c(ccc3ccccc32)o1 | -2.9% | -48% | 8 | 6%
Cc1cc(=O)[nH]c(COc2ccccc2)n1 | -2.8% | -4% | -14 | 4%
COc1ccc(S(=O)(=O)NNC(=O)C2COc3ccccc3O2)cc1[N+](=O)[O-] (centres undefined) | -0.7% | . | . | -4%
Cc1nnc(SC/C=C/c2ccccc2)n(N)c1=O | 2.1% | -11% | 3 | 4%
CSCCC(NS(=O)(=O)c1ccccc1F)C(=O)N1CCCCCCC1 (centres undefined) | -6.3% | 0% | . | -3%
CC(C)(O)C#Cc1ccc(C(=O)NC2CCCCC2)s1 | 5.2% | -53% | 0 | 4%
CC1(C)O[C@@H]2C[C@H]3[C@@H]4CCC5=CC(=O)C=C[C@]5(C)[C@@]4(F)[C@@H](O)C[C@]3(C)[C@]2(C(=O)CO)O1 | -5.6% | -29% | . | -13%
